Bioassay records as filed in PubChem.
Beta apoptosis – inhibitors of cytokine-induced beta cell apoptosis, primary screen, luminescence; INS-1E cytokine-induced death, ATP luminescence, 48 h; percent of positive-control rescue, neutral wells zero; protection from apoptosis, % (concentration not given with the values); hit rate 0.8% among 300,000;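 active = all replicates at 75% or more, or half of them and the mean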;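 also: 0% = cytokine-treated negative control wells and 100% = positive control rescue; higher means more ATP so stronger rescue from cytokine killing; wells of about 40 µL received 100 nL stock; the first replicate is given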
B2AR ag – beta2AR agonists driving receptor internalization, primary screen, cell-based, FAP fluorogen, flow cytometry. hit rate 0.43% among 340,000. response, % (no concentration beside the values). Am2.2-beta2AR cells; reference of the scale not given here;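 active = response above a set limit, near 3 SD of response in nonfluorescent compounds, cut at about 42% in these data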;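 also: stock transfer was 100 nL into about 11 µL; a reference agonist was the positive control; negative values mostly stem from fluorescent compounds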
LANA-H2B inh – blockers of LANA interaction with H2A/H2B – biochemical, FP readout, HTS, primary screen. Protein LANA1 (Human herpesvirus 8 type P (isolate GK18)), Q9QR71. cell-free LANA-H2A/H2B peptide, fluorescence polarization. inhibition, % (no concentration beside the values). hit rate 0.6% among 320,000; in the data active = inhibition mostly above about 10%, no sharp cut-off; inactive = mostly below about 6.7%;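 also: stock transfer was 7.5 nL into about 10 µL; 0% = median of vehicle wells and 100% = median of positive control wells; one replicate is shown; the record names a cut of 25% in any replicate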
Target sequence (Q9QR71 whole entry, looked up): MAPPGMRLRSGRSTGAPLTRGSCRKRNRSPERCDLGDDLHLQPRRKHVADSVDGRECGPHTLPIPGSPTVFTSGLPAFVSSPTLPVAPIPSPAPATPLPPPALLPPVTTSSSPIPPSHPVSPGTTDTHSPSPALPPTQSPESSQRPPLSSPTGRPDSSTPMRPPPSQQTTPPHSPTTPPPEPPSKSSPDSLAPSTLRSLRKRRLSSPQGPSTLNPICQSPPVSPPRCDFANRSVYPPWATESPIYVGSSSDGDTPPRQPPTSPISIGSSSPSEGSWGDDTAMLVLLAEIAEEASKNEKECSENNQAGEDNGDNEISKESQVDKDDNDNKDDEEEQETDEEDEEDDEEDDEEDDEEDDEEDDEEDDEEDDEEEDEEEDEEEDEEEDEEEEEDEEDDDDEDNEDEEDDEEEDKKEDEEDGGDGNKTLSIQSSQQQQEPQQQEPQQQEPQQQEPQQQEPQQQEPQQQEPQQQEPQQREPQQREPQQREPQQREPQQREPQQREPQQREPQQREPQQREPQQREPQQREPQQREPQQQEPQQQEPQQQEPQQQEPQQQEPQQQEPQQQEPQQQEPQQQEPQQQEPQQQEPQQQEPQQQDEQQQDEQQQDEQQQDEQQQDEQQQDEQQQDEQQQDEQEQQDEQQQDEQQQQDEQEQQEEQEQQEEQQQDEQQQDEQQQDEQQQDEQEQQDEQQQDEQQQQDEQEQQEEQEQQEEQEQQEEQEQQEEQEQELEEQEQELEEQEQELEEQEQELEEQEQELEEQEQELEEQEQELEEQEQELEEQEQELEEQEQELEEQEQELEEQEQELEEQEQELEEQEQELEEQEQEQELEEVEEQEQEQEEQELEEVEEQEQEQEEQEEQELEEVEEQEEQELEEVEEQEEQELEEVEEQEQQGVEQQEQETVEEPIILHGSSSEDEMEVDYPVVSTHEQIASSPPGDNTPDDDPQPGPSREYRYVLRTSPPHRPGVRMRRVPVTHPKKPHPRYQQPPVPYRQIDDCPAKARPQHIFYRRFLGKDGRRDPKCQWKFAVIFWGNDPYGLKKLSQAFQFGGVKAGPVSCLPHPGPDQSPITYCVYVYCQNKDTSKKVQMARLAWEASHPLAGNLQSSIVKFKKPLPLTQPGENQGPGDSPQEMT
ALR H2O2 inh – inhibitors of human ALR sulfhydryl oxidase, primary screen, biochemical, H2O2 detection, HRP-luminol luminescence, single point; inhibition, % (concentration not given with the values); hit rate 3.8% among 290,000; purified ALR, DTT oxidation; AID 485317, 2010;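 active = mean and each replicate at 75% or more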;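 also: stock transfer was 7.5 nL into about 7.5 µL; 0% = neutral wells and 100% = wells with inactivated enzyme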
Calb FLC – C. albicans growth inhibition with fluconazole, primary screen, CaCi-2 strain, Alamar Blue fluorescence; AID 1979, 2009; hit rate 0.57% among 300,000; C. albicans CaCi-2 (fluconazole-resistant clinical isolate) + fluconazole, 48 h; growth inhibition, % (concentration not given with the values);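 active = most replicates above 75%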;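 also: all wells also contain fluconazole at 8 µg/ml as a sub-toxic cotreatment; 0% = median of DMSO wells and 100% = median of geldanamycin control wells; wells of about 8 µL received 7.5 nL stock; the first replicate is given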
A1 inh – caspase 3/7 activation in MEF A1-2A-BIM cells, primary screen, A1 inhibitor project, cell-based, luminescence, HTS. AID 2462, 2010. Caspase-Glo 3/7 luminescence, 3 h; percent of clofoctol response, vehicle zero. hit rate 0.066% among 330,000. caspase activation, % (no concentration beside the values);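 active = over half of replicate activation scores above 10%, or exactly half above 10 with the replicate mean above 10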;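 also: wells of about 30 µL received 50 nL stock; many hits fall short of the cut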
T cruzi inh – inhibitors of intracellular T. cruzi growth, primary screen, luminescence, NIH3T3 host cells; T. cruzi beta-gal in NIH3T3, 90 h; inhibition, % (test concentration not listed); hit rate 1.4% among 300,000;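 active = mean inhibition across valid replicates above about 55%, limit read from the data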;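 also: signal also drops with host cell toxicity which is not excluded here; 0% = plate median of DMSO wells and 100% = zero luminescence signal; higher percent means less beta-gal luminescence so fewer parasites; stock transfer was 50 nL into about 50 µL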
rRNA inh HTS – reduced GFP signal of wild-type E. coli, primary screen, bacterial rRNA inhibitor project, GFP/RFP fluorescence, OD600, single point. E. coli WT GFP vs humanized-ribosome RFP mutants, 24 h; hits give low values; DMSO median 0, no signal -100. GFP signal change (wild-type ribosome), % (concentration not given with the values). hit rate 1.6% among 350,000;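 active = significant combined selectivity score with lowered wild-type GFP, culture density cut under 30%, mutant RFP and density less affected; inactive = any of these conditions unmet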; also: one replicate is shown; some compounds called inactive have numbers as strong as hits
rRNA inh HTS OD600 – recorded beside rRNA inh HTS, whose call it bears; OD600 change, %; measured here: OD600 growth;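 optical density of the mix in the first replicate; 0 = DMSO median and -100 = no signal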
rRNA inh HTS RFP – recorded beside rRNA inh HTS, whose call it bears; RFP signal change, %; measured here: RFP humanized mutant strains;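 first replicate; 0 = DMSO median and -100 = no signal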
* hit, by the source's call; . = no result given; & = joins results of further samples.

No.	structure	Beta apoptosis	B2AR ag	LANA-H2B inh	ALR H2O2 inh	Calb FLC	A1 inh	T cruzi inh	rRNA inh HTS	rRNA inh HTS OD600	rRNA inh HTS RFP
1	Cc1noc(C)c1NC(=O)N(C)C[C@@H]1Oc2ccc(NC(=O)C3CCCCC3)cc2C(=O)N([C@@H](C)CO)C[C@H]1C	1	-3	3.1	5	.	0.4	.	0&16	7&59	0.3&1.1
2	CCN1CCN(CC(=O)Nc2ccc(OC(F)(F)F)cc2)CC1	0	1	1.1	-25	-3	0.4	3	4	4	0.8
3	CC1CCCC(NC(=O)COC(=O)COc2ccccc2Cl)C1C (stereo not drawn)	-4	-6	8.4	-7	0	1.1	-5	15	2	-4.9
4	COc1ccc(S(=O)(=O)Nc2cc3c(C(C)=O)c(C)oc3c3ccccc23)cc1	.	16	2.8	-7	41	0.2	49	.	.	.
5	COc1cc2nc(SCc3ccc(F)cc3)n(Cc3cccs3)c(=N)c2cc1OC	18	7	2.5	-3	24	1.4	36	.	.	.
6	COc1ccc(C(=S)NCS(=O)(=O)c2ccc(C)cc2)cc1	-8	-3	-0.1	.	-4	0.0	-32	.	.	.
7	CCCNC(=S)NCc1ccc(Cl)cc1	1	-1	.	.	19	0.8	-3	.	.	.
8	O=C(CCc1nc2sc3c(c2c(=O)[nH]1)CCCC3)NCCc1ccc(F)cc1	2	-7	-1.2	24	37	2.0	20	17	14	6.5
9	Cc1cc(C)nc(N2CCCC(C(=O)NCc3ccccc3)C2)n1 (stereo not drawn)	-1	-6	2.0	.	-2	1.1	0	.	.	.
10	CCN1CCN(C(=O)c2cc3cc(Cl)ccc3[nH]2)CC1	-1	-4	-8.2	11	-9	-0.3	20	3	17	-0.4
11	CC(=O)c1ccc(NC(=O)c2cccs2)cc1	5	-12	6.3	-5	-14	-4.4	-4	-8	-8	-6.0
12	COc1ccc(OC)c2[nH]c(=O)c(CCNS(=O)(=O)c3ccccc3)cc12	.	6	9.1	.	7	0.4	13	.	.	.
13	COC(=O)c1sc(OC)cc1OCc1ccc(C)cc1	-5	-8	2.5	-4	-9	-0.2	-4	.	.	.
14	CCc1ccc(N(CC(=O)Nc2ccccc2C(=O)N2CCOCC2)S(C)(=O)=O)cc1	-10	-4	-4.5	14	-4	-0.1	-3	.	.	.
15	COc1cccc(OCc2nc3c4cnn(-c5ccccc5)c4ncn3n2)c1	0	0	-0.3	-5	0	-8.9	.	.	.	.

Other compounds follow.
No.	structure	Beta apoptosis	B2AR ag	LANA-H2B inh	ALR H2O2 inh	Calb FLC	A1 inh	T cruzi inh	rRNA inh HTS	rRNA inh HTS OD600	rRNA inh HTS RFP
16	C/C(=N\N=C\c1ccccc1)c1nnn(-c2nonc2N)c1C	1	-1	-5.3	-6	10	0.4	2	.	.	.
17	O=C(Nc1ccccn1)c1ccc2ccccc2c1O	0	-1	0.3	55	25	-2.2	-19	-17	-34	2.2
18	CCN(C(=O)COC(=O)CNS(=O)(=O)c1ccc2ccccc2c1)C1CCCCC1	-5	4	1.2	-7	1	-0.5	-9	-16	-23	5.2
19	O=S(=O)(c1ccc(Br)cc1)N1CCCC1c1nc2ccccc2s1 (stereo not drawn)	-3	-13	0.4	.	-3	0.5	1	.	.	.
20	COc1ccc(-c2nc(N)n(C(=O)c3cccs3)n2)cc1	3	-5	3.4	.	-10	-0.8	-3	0	-10	4.3
21	COc1ccc(-n2c(SC)nnc2-c2c[nH]c3ccccc23)cc1	-4	9	-5.1	-15	-5	.	12	-4	13	-2.8
22	COc1ccc(N2CCN(C(CNS(=O)(=O)c3ccc(C)cc3)c3ccccc3)CC2)cc1 (stereo not drawn)	0	1	-1.3	0	.	0.3	.	-4	10	1.9
23	Cc1ccc(N(C)C(=O)c2ccc(CNc3c(N4CCC(C)CC4)c(=O)c3=O)cc2)cc1	5	7	-9.1	1	0	0.3	5	9	5	6.3
24	COc1ccc(CNC(=O)COC(=O)c2ccc(Br)c(S(=O)(=O)N3CCOCC3)c2)cc1	-3	4	-3.0	-7	.	0.6	.	.	.	.
25	O=C(CCN1C(=O)/C(=C\c2ccc(F)cc2)SC1=S)Nc1ccccc1	-1	-3	-1.5	.	9	0.3	-2	6	10	-3.8
26	CN(C)c1cccc(C(=O)NN2C(=O)NC3(CCCCC3)C2=O)c1	1	-2	-5.2	.	.	1.1	.	5	13	-1.4
27	O=C(NCC1CCCO1)c1ccc(COCC(F)(F)C(F)F)cc1 (stereo not drawn)	2	8	1.6	-2	15	-0.7	-7	8	9	2.6
28	Cc1cc(N)c(NC2=CC(=O)CC(C)(C)C2)cc1C	-6	0	-0.3	98*	13	0.4	-5	.	.	.
29	COc1ccc(S(=O)(=O)N2CCOCC2)cc1NC(=O)c1cc(C)oc1C	-4	-3	6.5	5	.	0.5	.	-3	7	-1.2
30	CCOC(=O)C1(CC2CC2)CCN(S(=O)(=O)C[C@]23CC[C@H](CC2=O)C3(C)C)CC1	-1	16	-3.5	1	-3	-0.8	14	1	-8	2.3

Next part:
No.	structure	Beta apoptosis	B2AR ag	LANA-H2B inh	ALR H2O2 inh	Calb FLC	A1 inh	T cruzi inh	rRNA inh HTS	rRNA inh HTS OD600	rRNA inh HTS RFP
31	CCN(CCCNC(=O)CN1C(=O)COc2ccc(S(=O)(=O)N3CCC(C)CC3)cc21)Cc1ccccc1	-12	-6	-3.6	0	-11	-0.1	23	4	-1	-2.2
32	COC(=O)C1CN(C(=O)COc2ccccc2)c2ccccc2O1 (stereo not drawn)	-6	3	-6.0	-4	1	-0.1	-10	2	8	-1.1
33	O=C(COC(=O)c1cccc([N+](=O)[O-])c1)c1ccc2c(c1)OCO2	-2	.	3.1	2	.	-0.5	3	.	.	.
34	S=c1[nH]nc(-c2ccc3ccccc3n2)n1-c1ccc2ncccc2c1	-1	-7	-3.8	.	2	0.1	0	-4	-15	0.4
35	CN1CCCN(S(=O)(=O)c2ccc(Cl)c(Cl)c2)CC1	.	-1	.	.	-3	.	1	5	-1	-1.7
36	Cc1ccc(S(=O)(=O)N2CCN(C(=O)c3sccc3C)CC2)cc1	.	6	-1.3	.	11	0.6	17	2	4	-1.1
37	CN(CC(=O)Nc1ccc(F)cc1)C(=O)CCc1ccccc1	-4	2	4.1	-8	-15	-0.7	-6	5	-3	-1.4
38	CN(C)N(C)C(=O)C(O)(c1ccccc1)c1ccccc1	-6	-1	0.9	-12	3	-0.1	-7	16	11	1.5
39	Fc1ccc(CSc2nnc(-c3ccncc3)o2)cc1	-7	-1	-1.3	-6	-3	1.1	0	5	3	-3.3
40	COc1c(O)cccc1[C@@H](O)C1CCN(CCc2ccc(F)cc2)CC1	4	-1	6.2	10	4	-0.8	3	31	7	-3.1
41	O=C(Nc1sc2c(c1C(=O)NCc1ccco1)CCCC2)c1ccc2c(c1)OCO2	8	7	7.6	4	0	-3.6	40	.	.	.
42	NS(=O)(=O)c1ccc(NC(=S)N2CCN(Cc3ccc4c(c3)OCO4)CC2)cc1	-1	1	-1.9	-1	-10	0.2	-14	-12	-18	51
43	CC(=O)c1c(C)[nH]c(C(=O)OCc2cccc(Cl)c2)c1C	75*	-14	-1.2	.	29	-0.3	21	-11	-7	2.4
44	Cc1cc(O)c(N)c(C)c1Cl	2	3	3.1	58	2	0.3	-19	-30	-47	-9.5
45	Cc1ccc(CN2CCC(NC(=O)c3ccccc3)CC2)cc1	-6	-6	9.6	-7	-13	0.5	8	4	8	-1.4

(further entries)
No.	structure	Beta apoptosis	B2AR ag	LANA-H2B inh	ALR H2O2 inh	Calb FLC	A1 inh	T cruzi inh	rRNA inh HTS	rRNA inh HTS OD600	rRNA inh HTS RFP
46	C=CCn1c(=O)c2ccccc2n2c(=S)[nH]nc12	1	-10	-0.5	58	6	1.5	1	-6	-6	0.0
47	CCN(CC)c1ccc(/C=N/NC(=O)c2cc(C)nc3ccccc23)cc1	-5	3	0.2	42	-1	-0.5	-6	3	-1	0.7
48	COc1ccc(N2CCN(Cc3nc4c(c(=O)n(C)c(=O)n4C)n3CCc3ccccc3)CC2)cc1	6	-11	1.0	52	-1	-0.7	-9	4	13	2.2
49	CC1CCCN(CCCNC(=O)C2CCC(CNS(=O)(=O)c3cccc4nsnc34)CC2)C1 (stereo not drawn)	0	-12	-6.3	1	1	0.1	12	.	.	.
50	CC(=O)N1Cc2ccccc2CC1C(=O)NCc1ccccc1F (stereo not drawn)	-9	1	-0.9	.	5	-0.5	14	13	17	-0.4
51	COC(=O)c1ccc(Cn2cc([N+](=O)[O-])cn2)cc1	6	0	2.2	-26	1	-1.1	4	4	1	0.1
52	O=C(O)C1C2C=CC(C2)C1C(=O)Nc1ccccc1Br (stereo not drawn)	-8	-7	1.7	0	2	-0.5	-27	2	7	-3.0
53	COc1ccc(N=C2SC(CC(=O)Nc3ccccc3)C(=O)N2Cc2ccco2)cc1 (stereo not drawn)	.	3	6.9	-2	-7	-0.1	24	.	.	.
54	COc1ccc(Cl)cc1NS(=O)(=O)c1cn(C)nc1C	-7	1	-2.4	-5	-1	-0.2	5	2	-3	0.5
55	O=C(Nc1ccccc1O)c1cccc(S(=O)(=O)Nc2ccccc2O)c1	.	-8	1.3	99*	4	0.9	10	3	0	-3.2
56	O=C(O)c1c2c(nc3ccccc13)-c1ccccc1CC2	-4	0	-4.8	-22	4	-0.1	-1	1	-7	-0.9
57	Cc1ccc(CNCCC2=CCCCC2)cc1	7	13	9.9	-30	-27	-0.9	43	.	.	.
58	COC(=O)[C@@H]1C[C@@]2(O)[C@H](O)[C@H](O)[C@H](O)C[C@H]2N1Cc1ccc(C)s1	-6	1	-1.5	-5	-12	0.9	-13	8	3	6.5
59	O=C(Nc1ccccc1)C1CCCN1S(=O)(=O)c1ccc(Br)cc1 (stereo not drawn)	4	-4	-5.8	-4	-12	-0.2	-16	-3	2	0.9
60	O=C(Nc1ccc2c(c1)OCCO2)C1CCCN1S(=O)(=O)c1cccc2cccnc12 (stereo not drawn)	0	0	5.9	-42	4	0.4	4	0	-1	-2.4

This is a subset; the hit share may differ from the screen's.
